E coli growth: inhibitors of Escherichia coli growth | OD600, 23 h; hits give low values | OD600 absorbance (concentration not given with the values) | hit rate 0.21% among 330,000;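 active = OD600 absorbance below the run mean of sample wells minus 3.6 SD, in any replicate, cut at about 0.56 in these data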;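 also: stock transfer was 300 nL into about 60 µL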
* marks the source's active call; other numbers are inactive results; & = joins results of further samples. Not all compounds are listed; the hit share may differ from the screen's.

E coli growth	structure
0.718	O=C(CC1CC=CCC(NC(=O)OCC2c3ccccc3-c3ccccc32)C(=O)OCC(Cc2ccccc2)NC1=O)NC(CO)Cc1ccccc1 (stereo unspecified)
0.631	CC(=O)n1cc(C2C=C(C(=O)N3CCN(C)CC3)OC(OCc3ccc(CO)cc3)C2)c2ccccc21 (stereo unspecified)
0.632	CC(C)C(CO)Nc1nc(Nc2ccc(Cl)c(C(=O)O)c2)c2ncn(C(C)C)c2n1 (stereo unspecified)
0.713	CCC1=C(OC(=O)N(CC)CC)N2C(=O)OC(=NCC(=O)OC)[C@]2(Cc2ccccc2)C2C1=CCC1C(=O)N(C)C(=O)C12 (stereo partly specified)
0.721	COc1ccc(C2C(=C(O)c3ccc(C)cc3)C(=O)C(=O)N2C)cc1 (stereo unspecified)
0.628	COc1cc(O)c2c(=O)c3c(OC4OC(CO)C(O)C(O)C4O)ccc(O)c3oc2c1 (stereo unspecified)
0.639&0.707	COC(=O)C1=COC(OC2OC(CO)C(O)C(O)C2O)C2C(CO)=CCC12 (stereo unspecified)
0.693	CC(=CC(=O)O)CC[C@@]1(C)C(C)CC[C@@]2(C)C(C)=CCCC12 (stereo partly specified)
0.706	CCOC(=O)C=CC1Cc2ccccc2CO1 (stereo unspecified)
0.706	COc1ccc(C2CC(=O)C=C(c3ccc4cc[nH]c4c3)C2)cc1 (stereo unspecified)
0.714	COC(=O)c1ccc(C23CC4(C2)C(CN(C)C4c2ccccc2)C3c2ccccc2)cc1 (stereo unspecified)
0.685&0.676	CN1CC(C(=O)N[C@]2(C)O[C@@]3(O)C4CCCN4C(=O)C(Cc4ccccc4)N3C2=O)CC2c3cccc4[nH]cc(c34)CC21 (stereo partly specified)
0.586&0.702	CCCCN1CCNCC1Cc1ccc(O)cc1 (stereo unspecified)
0.678	COC(=O)c1ccc2c(c1)C(C)(C)C(C=Cc1ccc(OC)c(OC)c1OC)=[N+]2C
0.676&0.717	O=C(NCc1nc2ccccc2[nH]1)C1=CC(c2ccc(C(F)(F)F)cc2)CC(OCc2ccc(CO)cc2)O1 (stereo unspecified)
0.666&0.704	CCOC1OC(C(=O)N2CCOCC2)=CC(c2cn(C(C)=O)c3ccccc23)C1CCCO (stereo unspecified)
0.711	CCCC(OS(N)(=O)=O)C(Cc1ccccc1)C(=O)OCC (stereo unspecified)
0.676&0.734&0.705&0.663	C=CCC(CC(=O)OC(C)(C)C)C(=O)OCC1CCCN1C(=O)C(CC=C)CC(=O)NC(CO)Cc1ccccc1 (stereo unspecified)
0.675	COC(=O)[C@@]1(Cc2ccc(F)cc2)C2c3cc(C(=O)N(C)C)n(Cc4nc5ccccc5[nH]4)c3CC2CN1C(=O)c1ccccc1 (stereo partly specified)
0.681	CC(C)CN(CC(C)C)C1=NC(=Cc2ccco2)C(=O)N1c1ccccc1
0.644	CC(C)(C)OC(=O)C(Cc1ccccc1)NC(=O)c1nc[nH]c1C(=O)N1CCN(c2ccccc2)CC1 (stereo unspecified)
0.7	CC1C(=O)OC2C(O)C34C5CC(C(C)(C)C)C36C(OC(=O)C6O)OC4(C(=O)O5)[C@@]12O (stereo partly specified)
0.692	COc1ccc(C2=CC(=O)CC(c3ccc(F)cc3)C2)c(F)c1F (stereo unspecified)
0.692	COC(=O)C1=C(C(=O)OC)C2N(C)c3ccccc3[C@@]23CC(CO)N(C(=O)c2cccs2)C3=N1 (stereo partly specified)
0.703	CCOC1OC(C(=O)NCc2nc3ccccc3[nH]2)=CC(c2csc3ccccc23)C1CCCO (stereo unspecified)
0.69	CC(NC(=O)c1nc[nH]c1C(=O)NC(Cc1ccccc1)C(=O)OC(C)(C)C)C(=O)OCc1ccccc1 (stereo unspecified)
0.664	CC(C)(C)OC(=O)CCC(C(=O)N1CCN(C(=O)OC(C)(C)C)CC1)n1cc(C(Cc2ccc(O)cc2)NC(=O)OC(C)(C)C)nn1 (stereo unspecified)
0.63	CC1CN=C(N(C)C)N1CCC1CCCC1 (stereo unspecified)
0.62	COc1ccc2c(c1)OCC1C2N2C(=O)CN(C)C(=O)[C@@]2(C)C1c1ccccc1 (stereo partly specified)
0.689	CC1CN(C(C)CO)C(=O)c2cccc(NC(=O)Nc3ccccc3)c2OC1CN(C)S(=O)(=O)c1ccc(F)cc1 (stereo unspecified)
0.67	O=C1C2C(c3cccc(C=Cc4ccccc4)c3)CC=CC2C(c2ccc(C(F)(F)F)cc2)N1Cc1ccccc1 (stereo unspecified)
0.727	NC(=O)C1CC2(CC(c3cccc(NC(=O)CC(c4ccccc4)c4ccccc4)c3)=NO2)CN1C(=O)C1CCC(=O)N1 (stereo unspecified)
0.076*	CCC(C)N1CCC2(CC1)N=c1c(c3c4c5c(C)c(O)c3c(O)c1=NC(=O)C(C)=CC=CC(C)C(O)C(C)C(O)C(C)C(OC(C)=O)C(C)C(OC)C=CO[C@@](C)(O5)C4=O)N2 (stereo partly specified)
0.689	CC1CN(C(C)CO)C(=O)c2cc(NS(=O)(=O)c3cccs3)ccc2OC1CN(C)C(=O)Nc1ccc(C(F)(F)F)cc1 (stereo unspecified)
0.719	CCCCOc1ccc(C(O)=C2C(=O)C(=O)N(CCCOC)C2c2ccncc2)cc1 (stereo unspecified)
0.655	COC(=O)C1CC1C(NC(=O)c1cnccn1)c1ccccc1 (stereo unspecified)
0.696	O=C1CCN(Cc2ccc(Br)cc2)CCN1C(CO)c1ccccc1 (stereo unspecified)
0.727	CCN1C(=O)C2C(c3ccc(SC4CCCCC4)c(OC)c3)N[C@@](Cc3ccccc3)(C(=O)OC)C2C1=O (stereo partly specified)
0.654&0.679&0.69&0.678&0.702&0.682	CC1COC(=O)C(CC(=O)OC(C)(C)C)CC=CCC(CC(=O)N(CCO)Cc2ccccc2)C(=O)N1 (stereo unspecified)
0.7	COC(=O)C1=C(C)N(CC2CC2)C(=NCc2cc(OC)c(OC)c(OC)c2)NC1c1ccccc1 (stereo unspecified)
0.685&0.638&0.679	COC(CC(O)CC(=O)C(C)OCc1ccccc1)OC (stereo unspecified)
0.703&0.713&0.705&0.691&0.697	COC(CC1OC1C(=O)C(C)OCc1ccccc1)OC (stereo unspecified)
0.676	CC(C)CC(NC(=O)OC(C)(C)C)c1cn(C(Cc2ccc(O)cc2)C(=O)N2CCN(C(=O)OC(C)(C)C)CC2)nn1 (stereo unspecified)
0.681	CC(C)CC(CN=[N+]=[N-])N1CCN(CC(C)C)CCC1=O (stereo unspecified)
0.645&0.668	CC1(C)c2[nH]c3ccccc3c2CC2C(=O)N(Cc3ccccc3)C(=O)N21 (stereo unspecified)
0.632	CN(C)C1=NCC(Cc2ccccc2)N1CCCC1CCCCC1 (stereo unspecified)
0.693	OCC1OC(OCCc2ccc(O)cc2)C(O)C(O)C1O (stereo unspecified)
0.678	OC1C=C2CCN3Cc4cc5c(cc4C(C1O)C23)OCO5 (stereo unspecified)
0.713	NC(=NOC(=O)C=Cc1ccccc1Cl)c1ccccn1
0.631	CCC(=O)Nc1cccc(C2=NOC3(C2)CC(C(N)=O)N(C(=O)c2cc([N+](=O)[O-])cc([N+](=O)[O-])c2)C3)c1 (stereo unspecified)

An excerpt from above in order of count of non-hydrogen atoms, smallest number first:
E coli growth	structure
0.681	CC(C)CC(CN=[N+]=[N-])N1CCN(CC(C)C)CCC1=O (stereo unspecified)
0.632	CN(C)C1=NCC(Cc2ccccc2)N1CCCC1CCCCC1 (stereo unspecified)
0.676&0.717	O=C(NCc1nc2ccccc2[nH]1)C1=CC(c2ccc(C(F)(F)F)cc2)CC(OCc2ccc(CO)cc2)O1 (stereo unspecified)

Additional entries follow.
E coli growth	structure
0.72	C#CCOCCOCCOCCNc1nc(N2CCN(C(=O)C(C)n3cc(CCC(=O)O)nn3)CC2)nc(N2CCN(C(=O)C(Cc3ccc(O)cc3)n3cc(CCO)nn3)CC2)n1 (stereo unspecified)
0.712	CC(C)=CCCC(C)=CCCC(C)=CCOc1ccc2ccc(=O)oc2c1
0.664&0.685&0.622&0.688&0.696&0.699&0.68	CC1CC[C@]2(O1)OC(CCO)CC(O)C2O (stereo partly specified)
0.719	CCOC(=O)C1C2COc3cc(OC)ccc3C2N2C(=O)CN(Cc3ccc(OC)cc3)C(=O)[C@@]12C (stereo partly specified)
0.653	CCCC(=O)Nc1ncnc2c1ncn2C1OC2OP(=O)(O)OCC2C1OC(=O)CCC (stereo unspecified)
0.697	Cc1cccc(CN2C[C@]34C=CC(CC3S2(=O)=O)O4)c1 (stereo partly specified)
0.618	COc1cc(NS(=O)(=O)c2ccc(NC=C(C#N)c3nc4ccccc4o3)cc2)nc(OC)n1
0.612	CC(C)NC(=O)N(C)CC1Oc2c(NC(=O)C3CC3)cccc2C(=O)N(C(C)CO)CC1C (stereo unspecified)
0.671&0.661	CC(C)(C)C1C=C(C(=O)N2CCN(Cc3ccc4c(c3)OCO4)CC2)OC(OCc2ccc(CO)cc2)C1 (stereo unspecified)
0.695	CC(C)(C)OC(=O)NC(Cc1ccccc1)C(=O)NC(CO)C(O)C1CC1C(=O)NC1CC1 (stereo unspecified)

18 entries from above, with tabs.
Compound	E coli growth
COC(=O)C1=C(C)N(CC2CC2)C(=NCc2cc(OC)c(OC)c(OC)c2)NC1c1ccccc1 (stereo unspecified)	0.7
COC(CC(O)CC(=O)C(C)OCc1ccccc1)OC (stereo unspecified)	0.685&0.638&0.679
COC(CC1OC1C(=O)C(C)OCc1ccccc1)OC (stereo unspecified)	0.703&0.713&0.705&0.691&0.697
CC(C)CC(NC(=O)OC(C)(C)C)c1cn(C(Cc2ccc(O)cc2)C(=O)N2CCN(C(=O)OC(C)(C)C)CC2)nn1 (stereo unspecified)	0.676
CC(C)CC(CN=[N+]=[N-])N1CCN(CC(C)C)CCC1=O (stereo unspecified)	0.681
CC1(C)c2[nH]c3ccccc3c2CC2C(=O)N(Cc3ccccc3)C(=O)N21 (stereo unspecified)	0.645&0.668
CN(C)C1=NCC(Cc2ccccc2)N1CCCC1CCCCC1 (stereo unspecified)	0.632
OCC1OC(OCCc2ccc(O)cc2)C(O)C(O)C1O (stereo unspecified)	0.693
OC1C=C2CCN3Cc4cc5c(cc4C(C1O)C23)OCO5 (stereo unspecified)	0.678
NC(=NOC(=O)C=Cc1ccccc1Cl)c1ccccn1	0.713
CCC(=O)Nc1cccc(C2=NOC3(C2)CC(C(N)=O)N(C(=O)c2cc([N+](=O)[O-])cc([N+](=O)[O-])c2)C3)c1 (stereo unspecified)	0.631
C#CCOCCOCCOCCNc1nc(N2CCN(C(=O)C(C)n3cc(CCC(=O)O)nn3)CC2)nc(N2CCN(C(=O)C(Cc3ccc(O)cc3)n3cc(CCO)nn3)CC2)n1 (stereo unspecified)	0.72
CC(C)=CCCC(C)=CCCC(C)=CCOc1ccc2ccc(=O)oc2c1	0.712
CC1CC[C@]2(O1)OC(CCO)CC(O)C2O (stereo partly specified)	0.664&0.685&0.622&0.688&0.696&0.699&0.68
CCOC(=O)C1C2COc3cc(OC)ccc3C2N2C(=O)CN(Cc3ccc(OC)cc3)C(=O)[C@@]12C (stereo partly specified)	0.719
CCCC(=O)Nc1ncnc2c1ncn2C1OC2OP(=O)(O)OCC2C1OC(=O)CCC (stereo unspecified)	0.653
Cc1cccc(CN2C[C@]34C=CC(CC3S2(=O)=O)O4)c1 (stereo partly specified)	0.697
COc1cc(NS(=O)(=O)c2ccc(NC=C(C#N)c3nc4ccccc4o3)cc2)nc(OC)n1	0.618

New compounds follow
E coli growth	structure
0.729	CCOC(=O)C1C2COc3ccc(Cl)cc3C2N2C(=O)c3cc(Br)ccc3NC(=O)[C@@]12C (stereo partly specified)
0.661&0.69	CC(=O)CC(O)CC(=O)C1OC(=O)CCCCCC=CCc2ccccc21 (stereo unspecified)
0.693&0.746	CC(NC(=O)c1nc[nH]c1C(=O)NC(Cc1ccccc1)C(=O)OC(C)(C)C)c1ccccc1 (stereo unspecified)
0.662&0.705	COC(CC(O)CC(=O)COCc1ccccc1)OC (stereo unspecified)
0.619	NC(=O)CNC(=O)C1CC2(CC(c3ccc(Cl)cc3)=NO2)CN1C(=O)c1ccc(Br)cc1 (stereo unspecified)
0.669	Cc1noc(C)c1NC(=O)Nc1ccc2c(c1)C(=O)N(C(C)CO)CC(C)C(CN(C)S(=O)(=O)c1ccc(F)cc1)O2 (stereo unspecified)
0.638&0.681	CCOC(=O)C1C2COc3cc(OC)ccc3C2N2C(=O)N(c3ccc(OC)cc3)C(=O)[C@]12C (stereo partly specified)
0.664	CCOC(=O)CC1c2cc(F)ccc2S(=O)(=O)N1C(C)(C)C (stereo unspecified)
0.709&0.682	CC(C)(C)C1C=C(C(=O)N2CCN(Cc3ccccc3)CC2)OC(OCCCCO)C1 (stereo unspecified)
0.66	COC(=O)C(C)C1C[C@@]1(C)C(NC(=O)OCc1ccccc1)c1ccccc1 (stereo partly specified)
0.702	COc1ccc(C2C=CCN(S(=O)(=O)C=Cc3ccccc3)C(C)C(=O)N2Cc2ccc(F)cc2)cc1 (stereo unspecified)
0.684	CCCCC1CNC(=S)N1CCc1cccc(F)c1 (stereo unspecified)
0.727	CC(NC(=O)c1nc[nH]c1C(=O)NC(CCCCNC(=O)OC(C)(C)C)C(=O)OC(C)(C)C)C(=O)OCc1ccccc1 (stereo unspecified)
0.709	Cc1cccc(C2C3C(=O)N(Cc4ccccc4)C(=O)C3[C@]3(CC(C)C)C(=O)N(c4cccc(F)c4)C(=O)N23)c1 (stereo partly specified)
0.664	O=C(O)C=CC(=O)Nc1ccc(NC(=O)c2ccccc2)c(Cl)c1
0.698	CCCCC1CC1C(NC(=O)c1cccs1)c1ccc(Cl)cc1 (stereo unspecified)
0.724	O=C(CC1C(=O)N(c2ccc(F)c(F)c2)CC1Cc1ccccc1)Nc1ccccc1 (stereo unspecified)
0.69	O=C(C(=C([O-])c1ccccc1)[n+]1ccccc1)c1ccc([N+](=O)[O-])cc1
0.695	C#CCOCCOCCOCCNc1nc(N2CCN(C(=O)C(C(C)CC)n3cc(C(N)COC(=O)C(F)(F)F)nn3)CC2)nc(N2CCN(C(=O)C(C(C)CC)n3cc(C(N)CC(C)C)nn3)CC2)n1 (stereo unspecified)
0.72	COC(=O)C(Cc1ccccc1)NC(=O)[C@@]1(C)CC1C(NC(=O)OCc1ccccc1)c1ccccc1 (stereo partly specified)
0.655	COc1ccccc1C1C(=C(O)c2ccccc2)C(=O)C(=O)N1CC(C)O (stereo unspecified)

High-throughput results as filed in PubChem BioAssay.
